# Compound activity deposited in PubChem BioAssay by Broad Institute.
# DUX4 inh: blocks DUX4-driven transcriptional activation; actives 0.8% (n = 37,000); activity change, negative = inhibition, % (no concentration beside the values); 293T-iDUX4 ZSCAN4-Gaussia luciferase reporter, 24 h; stronger effect = lower value; AID 1224904;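 active = -10% or lower and over 25 points stronger than a control reporter; inconclusive = -10% or lower with a smaller gap; inactive = above -10%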;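 note: 0% = median of neutral control wells and -100% = median of positive control wells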
# DUX4 inh difference: further read-out of DUX4 inh, marked with its call; Gaussia minus Italica difference, %; measured here: selective DUX4 reporter inhibition;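 worked out from the two reporters; negative = selective loss of the DUX4 reporter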
# DUX4 inh control: also measured in DUX4 inh; calls as there; activity change, negative = inhibition, %; measured here: Italica tet-on control reporter;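 0 = neutral control and -100 = positive control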
# * marks the source's active call; other numbers are inactive results; ? = inconclusive; nt = no result given; ! = repeats disagree. These rows are one share of the data; count on the stated rates, not on these rows.
SMILES,DUX4 inh,DUX4 inh difference,DUX4 inh control
C[C@@H]1CN([C@H](C)CO)C(=O)Cc2cc(NC(=O)CCC(F)(F)F)ccc2O[C@H]1CN(C)C(=O)Nc1cccc2ccccc12,-1,0,-1.6
CN(C)CC#Cc1ccc([C@@H]2[C@@H](CO)N3C(=O)CN(C(=O)CN(C)C)C[C@H]23)cc1,14,5,8.6
CN1C(=O)c2cc(NC(=O)c3cccc(Cl)c3)ccc2OC[C@@H]2O[C@H](CC(=O)NC3CCCCC3)CC[C@@H]21,-1,-1,-0.3
CC(C)NC(=O)N1[C@@H]2CN(C(=O)C3CC3)c3ccccc3[C@@H]2[C@@H]1CO,-1,3,-4.1
O=C(C[C@@H]1CC[C@@H](NS(=O)(=O)c2ccc(F)cc2)[C@H](CO)O1)N1CCN(c2ccccc2)CC1,1,-5,5.3
CS(=O)(=O)N1CC(=O)N2[C@H](CO)[C@@H](c3ccc(Br)cc3)[C@H]2C1,12,5,7.3
CCC(=O)Nc1ccc2c(c1)C(=O)N(C)[C@H]1CC[C@H](CC(=O)Nc3ccc(C(C)C)cc3)O[C@@H]1CO2,-1,-1,-0.2
CCCC(=O)N1CC2(CCN(C(=O)NC(C)C)CC2)c2c([nH]c3cc(OC)ccc23)[C@H]1CO,13,9,3.7
Cc1ccc(-c2ccc([C@@H]3[C@@H]4CN(Cc5ccccc5F)C[C@H]3N4)cc2)cc1,?,nt,nt
CC(C)CC#Cc1ccc([C@@H]2[C@@H](CO)N3C(=O)CN(C(=O)c4ccc5c(c4)OCO5)C[C@@H]23)cc1,?,nt,nt
C[C@H]1CN([C@@H](C)CO)S(=O)(=O)c2ccc(C#CC3CC3)cc2O[C@H]1CN(C)C(=O)c1cccc(F)c1,1,1,-0.1
Cc1ccc(-c2cnc3c(c2)C(=O)N([C@H](C)CO)C[C@@H](C)[C@H](CN(C)CC2CCCCC2)O3)cc1,-1,-1,-0.1
CO[C@@H]1CN(C)C(=O)c2ccc(NS(=O)(=O)CC(F)(F)F)cc2OC[C@@H](C)N(Cc2nccs2)C[C@@H]1C,8,1,6.9
O=C(CN1CCOCC1)N1CCCCN2[C@H](CO)[C@H](c3ccc(Br)cc3)[C@@H]2C1,10,15,-4.2
CO[C@H]1CN(C)C(=O)c2cc(NC(=O)Cc3ccccc3)ccc2OC[C@H](C)N(C)C[C@@H]1C,0,-3,2.5
C[C@@H]1CCCCO[C@@H](CN(C)C(=O)CCC(F)(F)F)[C@H](C)CN([C@H](C)CO)C(=O)c2cc(NC(=O)C3CCCCC3)ccc2O1,1,2,-0.6
CC(C)NC(=O)Nc1ccc2c(c1)C(=O)N(C)[C@@H]1CC[C@H](CC(=O)NCc3ccc(F)cc3)O[C@@H]1CO2,0,2,-2.0
CN1C(=O)c2cc(NS(=O)(=O)c3ccccc3F)ccc2OC[C@@H]2O[C@@H](CC(=O)NC3Cc4ccccc4C3)CC[C@H]21,-3,-7,4.3
C/C=C/c1ccc([C@@H]2[C@H](CO)N(CCC(F)(F)F)C23CN(C(=O)COC)C3)cc1,-5,-1,-4.1
O=C(C[C@@H]1C=C[C@H](NC(=O)CCN2CCCCC2)[C@@H](CO)O1)NCc1ccc(Cl)c(Cl)c1,-1,2,-3.4
O=C(C[C@@H]1CC[C@H]2[C@@H](COC[C@H](O)CN2CCc2ccccc2)O1)NCCCN1CCOCC1,5,3,2.4
Cc1ccc(S(=O)(=O)Nc2ccc3c(c2)C(=O)N([C@@H](C)CO)C[C@@H](C)[C@@H](CN(C)Cc2ccc4c(c2)OCO4)OCCCC[C@@H](C)O3)cc1,1,-1,2.6
COc1ccccc1C(=O)Nc1ccc2c(c1)C(=O)N(C)[C@H]1CC[C@@H](CC(=O)NCCc3ccncc3)O[C@H]1CO2,-6,-6,0.4
CN(C)C(=O)c1ccc(-c2ccc([C@@H]3[C@@H](CO)N(C(=O)C4CC4)[C@H]3C#N)cc2)cc1,0,-1,0.7
COc1ccc(NC(=O)Nc2ccc3c(c2)[C@@H]2C[C@H](CC(=O)O)O[C@@H](CO)[C@@H]2O3)cc1,7,2,5.1
# Additional structures:
SMILES,DUX4 inh,DUX4 inh difference,DUX4 inh control
COc1ccc(NC(=O)N2CCCCN3[C@H](CO)[C@H](c4ccc(C#CCC(C)C)cc4)[C@H]3C2)cc1,?,nt,nt
N#C[C@@H]1[C@@H](c2ccccc2C2=CCCC2)[C@@H](CO)N1C(=O)NC1CCCCC1,?,nt,nt
COc1ccccc1CNC(=O)C[C@H]1CC[C@@H]2[C@H](COC[C@H](O)CN2Cc2ccccc2)O1,1,-1,2.1
CN(C[C@@H]1[C@H](c2ccccc2)[C@H](CO)N1C(=O)C1CC1)C(=O)c1ccccn1,7,5,2.2
O=C(Nc1ccccc1F)N1CCCCN2[C@H](CO)[C@@H](c3ccc(C#Cc4cccnc4)cc3)[C@@H]2C1,?,nt,nt
O=C(Nc1ccc(F)cc1)N1C[C@@H]2N[C@H](C1)C2c1ccc(-c2cccnc2)cc1 (some centres not stated),-37*!,-26*!,-12*!
O=C(NCCN1CCCCC1)[C@H]1[C@H](CO)[C@H]2Cn3c(cccc3=O)[C@H]2N1Cc1ccccn1,3,8,-4.2
COCCNC(=O)C[C@@H]1C[C@@H]2c3cc(NC(=O)C4CCC4)ccc3O[C@@H]2[C@H](CO)O1,12,4,7.6
CC(C)C#Cc1ccc([C@@H]2[C@H](C#N)N(C(=O)c3cccc(F)c3)[C@H]2CO)cc1,1,1,0.6
C[C@@H]1CN([C@H](C)CO)S(=O)(=O)c2ccc(-c3cccc(F)c3)cc2O[C@H]1CN(C)C(=O)Nc1cc(F)ccc1F,2,-2,3.3
C[C@H](NC(=O)[C@H]1[C@H](CO)[C@H]2Cn3c(cccc3=O)[C@@H]1N2Cc1ccncc1)c1ccccc1,7,2,4.4
CC(=O)N1CC[C@@H]2[C@H]1c1cc(-c3ccccc3)ccc1N[C@@H]2CO,17,13,3.0
C[C@H]1CN([C@@H](C)CO)C(=O)CCCn2nncc2CO[C@H]1CN(C)Cc1cccc(O)c1,7,0,7.5
C[C@@H]1CCCCO[C@H](CN(C)Cc2ccc3c(c2)OCO3)[C@H](C)CN([C@@H](C)CO)C(=O)c2cc(NC(=O)CCC(F)(F)F)ccc2O1,-3,-2,-0.9
CN1c2ccc(Br)cc2[C@@H]2[C@@H](CCN2C(=O)C2CCC2)[C@H]1CO,2,0,2.5
CCC(=O)N1CC(=O)N2[C@H](C1)[C@H](c1ccc(-c3ccc(C#N)cc3)cc1)[C@@H]2CO,8,6,1.9
O=C(c1cccnc1)N1CC(=O)N2[C@@H](CO)[C@@H](c3ccc(-c4ccccc4F)cc3)[C@@H]2C1,2,6,-4.0
O=C(C[C@@H]1CC[C@H]2[C@@H](COC[C@H](O)CN2C(=O)c2cnccn2)O1)NCc1ccccc1,6,-1,7.3
CC=Cc1ccc2n(c1=O)C[C@H]1[C@H](CO)[C@@H](C(=O)NCCc3ccncc3)[C@@H]2N1CCc1ccccc1 (mixture of isomers),-6,2,-7.2
COc1ccc(NC(=O)Nc2ccc3c(c2)C(=O)N([C@H](C)CO)C[C@@H](C)[C@@H](CN(C)S(=O)(=O)c2c(C)noc2C)OCCCC[C@H](C)O3)cc1,-2,-3,1.0
CO[C@@H]1CN(C)C(=O)c2cc(NC(=O)Nc3c(C)noc3C)ccc2OC[C@@H](C)N(CC2CC2)C[C@H]1C,1,3,-1.3
O=C(NCC[C@@H]1CC[C@H](NS(=O)(=O)Cc2ccccc2)[C@@H](CO)O1)C1CCCCC1,2,4,-1.9
COc1cccc(NC(=O)N2CC(=O)N3[C@H](C2)[C@H](c2ccc(Br)cc2)[C@@H]3CO)c1,9,4,4.8
O=C(c1ccccc1F)N1CC2(C1)[C@H](c1ccccc1)[C@H](CO)N2CC1CC1,-4,-5,1.3
Cc1ccc(S(=O)(=O)N[C@H]2CC[C@H](CCNC(=O)C3CCOCC3)O[C@H]2CO)cc1,2,-1,3.4
# Remaining list, next part:
SMILES,DUX4 inh,DUX4 inh difference,DUX4 inh control
CCCNC(=O)C[C@H]1CC[C@@H]2[C@H](COc3ccc(NC(=O)Cc4cccs4)cc3C(=O)N2C)O1,-4,-3,-0.8
C[C@H](CO)N1C[C@H](C)[C@H](CN(C)Cc2cccc(C(=O)O)c2)Oc2ncc(/C=C/c3ccccc3)cc2C1=O,3,5,-1.6
O=C1N[C@@H](c2ccccc2)COCc2cnnn2CC[C@@H]1Cc1ccc(C(F)(F)F)cc1,-1,0,-1.1
O=C(C[C@H]1CC[C@H]2[C@@H](COC[C@H](O)CN2C(=O)c2cccnc2)O1)Nc1ccc(-c2ccccc2)cc1,?,nt,nt
COCC#Cc1ccc2c(c1)O[C@@H](CN(C)S(=O)(=O)c1ccc(OC)cc1)[C@H](C)CN([C@H](C)CO)S2(=O)=O,?,nt,nt
CO[C@@H]1CN(C)C(=O)c2ccc(NC(=O)C3CCCC3)cc2OC[C@H](C)N(CCC(F)(F)F)C[C@@H]1C,-5,0,-4.8
O=C(C[C@@H]1CC[C@@H]2[C@H](COC[C@H](O)CN2C(=O)c2ccccc2)O1)Nc1ccccc1,15,13,2.6
O=C(Nc1ccccc1F)N1CC(=O)N2[C@H](CO)[C@@H](c3ccc(-c4ccc(F)cc4)cc3)[C@@H]2C1,-1,-3,2.0
CCN(C[C@H]1N[C@H](CO)[C@@H]1c1ccc(-c2cccc(C#N)c2)cc1)C(C)=O,-3,-7,4.6
N#C[C@H]1[C@@H](c2ccc(-c3cccc(F)c3)cc2)[C@@H](CO)N1C(=O)NC1CCCC1,-1,1,-2.1
CN(C)C(=O)C[C@@H]1CC[C@@H]2[C@H](COC[C@@H](O)CN2C(=O)C2CCOCC2)O1,-4,-4,0.5
COc1ccc(S(=O)(=O)Nc2ccc3c(c2)C(=O)N([C@@H](C)CO)C[C@H](C)[C@@H](CN(C)Cc2ccc(C(F)(F)F)cc2)OCCCC[C@H](C)O3)cc1,1,-1,1.2
O=C(C[C@@H]1CC[C@H]2[C@@H](COC[C@H](O)CN2Cc2nccs2)O1)NCc1ccc(F)cc1,3,7,-3.8

# Of the compounds above, eight contain a CF3 group:
SMILES,DUX4 inh,DUX4 inh difference,DUX4 inh control
C[C@@H]1CN([C@H](C)CO)C(=O)Cc2cc(NC(=O)CCC(F)(F)F)ccc2O[C@H]1CN(C)C(=O)Nc1cccc2ccccc12,-1,0,-1.6
CO[C@@H]1CN(C)C(=O)c2ccc(NS(=O)(=O)CC(F)(F)F)cc2OC[C@@H](C)N(Cc2nccs2)C[C@@H]1C,8,1,6.9
C[C@@H]1CCCCO[C@@H](CN(C)C(=O)CCC(F)(F)F)[C@H](C)CN([C@H](C)CO)C(=O)c2cc(NC(=O)C3CCCCC3)ccc2O1,1,2,-0.6
C/C=C/c1ccc([C@@H]2[C@H](CO)N(CCC(F)(F)F)C23CN(C(=O)COC)C3)cc1,-5,-1,-4.1
C[C@@H]1CCCCO[C@H](CN(C)Cc2ccc3c(c2)OCO3)[C@H](C)CN([C@@H](C)CO)C(=O)c2cc(NC(=O)CCC(F)(F)F)ccc2O1,-3,-2,-0.9
O=C1N[C@@H](c2ccccc2)COCc2cnnn2CC[C@@H]1Cc1ccc(C(F)(F)F)cc1,-1,0,-1.1
CO[C@@H]1CN(C)C(=O)c2ccc(NC(=O)C3CCCC3)cc2OC[C@H](C)N(CCC(F)(F)F)C[C@@H]1C,-5,0,-4.8
COc1ccc(S(=O)(=O)Nc2ccc3c(c2)C(=O)N([C@@H](C)CO)C[C@H](C)[C@@H](CN(C)Cc2ccc(C(F)(F)F)cc2)OCCCC[C@H](C)O3)cc1,1,-1,1.2

# Ordered by the number under DUX4 inh (lowest first): three from the list above
molecule | DUX4 inh | DUX4 inh difference | DUX4 inh control
CN(C)C(=O)C[C@@H]1CC[C@@H]2[C@H](COC[C@@H](O)CN2C(=O)C2CCOCC2)O1 | -4 | -4 | 0.5
N#C[C@H]1[C@@H](c2ccc(-c3cccc(F)c3)cc2)[C@@H](CO)N1C(=O)NC1CCCC1 | -1 | 1 | -2.1
O=C(C[C@@H]1CC[C@@H]2[C@H](COC[C@H](O)CN2C(=O)c2ccccc2)O1)Nc1ccccc1 | 15 | 13 | 2.6
